From PubChem
MgrA DNA FP – S. aureus MgrA activity modulators, primary screen, biochemical, S. aureus Newman, fluorescence polarization | MgrA-DNA binding | 84,000 tested, 0.13% active | inhibition, %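 (about 10 µg/mL by stock and volumes)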 | AID 602314, 2012;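 active = above 50% in either of two replicates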;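 also: 0% = protein plus DNA without compound and 100% = DNA alone without protein; higher means less MgrA bound to DNA so lower polarization; one replicate is shown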
S aureus helic – inhibitors of S. aureus replicative helicase, primary screen, biochemical, fluorescence unwinding readout. AID 485395, 2010. replicative DNA helicase (DnaC/DnaB), Staphylococcus aureus. 120,000 tested, 0.05% active. inhibition, %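 (tested at about 80 µM)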. purified S. aureus helicase, fluorescence unwinding assay; about half of the hits fall short of the stated cut;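 active = both duplicates at 50% or more, or one of them with a favoured structure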;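 also: 0% = mean of negative control wells and 100% = mean of positive control wells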
Active calls of the source: *; . = no result given. An excerpt; rates above refer to the full screens.

SMILES	MgrA DNA FP	S aureus helic
FC(F)(F)c1nc(=S)c2ccccc2[nH]1	.	13
Brc1ccc(-c2csc(NN=C3CCCC3)n2)cc1	16	3
COc1ccccc1Oc1ccc(C(F)(F)F)cc1N	-1.9	.
Nc1cccc(C(=O)NC2CC2)c1	.	12
CC(C)C(=O)N1N=C(c2cccc(NS(C)(=O)=O)c2)CC1c1ccccc1 (centres undefined)	.	12
COc1ccc(C(=O)n2c(=O)oc3ccc(Cl)cc32)cc1	.	10
CCOc1ccccc1C(=O)NCc1ccc2[nH]c(C)cc2c1	1.6	20
O=c1c2ccccc2cnn1Cc1cccc(Br)c1	.	2
CCN(CC)S(=O)(=O)c1ccc(Cc2ccc(S(=O)(=O)N(CC)CC)cc2)cc1	1.8	6
Brc1ccc2ncnc(-c3ccccc3)c2c1	-1.0	9
CCc1ccc(C2N=C3Oc4ccccc4C=C3C(=O)N2)cc1 (centres undefined)	.	14
COc1ccc(C(O)(CCc2ccccc2)C(CN2CCCCC2)c2ccccc2)cc1 (centres undefined)	-2.8	-9

Structural class, those above containing a carbonyl joined to an NH by a bond outside any ring
SMILES	MgrA DNA FP	S aureus helic
Nc1cccc(C(=O)NC2CC2)c1	.	12
CCOc1ccccc1C(=O)NCc1ccc2[nH]c(C)cc2c1	1.6	20

Other entries.
SMILES	MgrA DNA FP	S aureus helic
O=S(=O)(NCc1ccsc1)c1ccc(N2CCOCC2)nc1	-2.4	.
CC(=O)Oc1ccc(Cl)cc1C1OC(c2nc3nc(C)cc(C)n3n2)=NN1C(C)=O (centres undefined)	.	18
CCOC(=O)C1CCN(C(=O)CSc2ccc(Br)cc2)CC1	.	7
CCCN1CC=C2C(C#N)(C#N)C(N)=C(C#N)C(c3ccc(OCC(N)=O)cc3)C2(C)C1 (centres undefined)	24	-11
Nc1ccc(CN2CCCCCC2)cc1	4.0	19
CCn1c(SC(C)C(=O)NCc2ccc(OC)cc2)nc2ccccc21 (centres undefined)	.	-8
CCCCNS(=O)(=O)c1ccc(Cl)cc1	.	-13
O=S(=O)(c1ccccc1)N1CCN(S(=O)(=O)N2CCCCC2)CC1	-2.9	1
COc1ccc2c(COC(=O)c3ccc4c(=O)n5c(nc4c3)CCC5)cc(=O)oc2c1	.	26*
Cn1cnnc1SCc1cn2ccccc2n1	0.2	-16
COc1cc(C)nc2nc(SC)nn12	-1.1	.
CC1=NN(C)C(=O)/C1=N\OC(=O)c1ccc(Cl)cc1	.	5
CC(=O)c1ccccc1OC(=O)c1c(F)cccc1F	2.9	.
O=C(O)C1=C(Sc2ccc(Cl)cc2)CSC1	0.6	.
CC(NC(=O)/C=C/c1cccs1)C1CC2CCC1C2 (centres undefined)	-2.7	4
CC1CCN(C(=O)c2ccc(COc3ccccc3Cl)o2)CC1	.	17
CC(=O)Nc1ccc(CNC(=O)c2ccc(F)cc2)cc1	.	-10
Cc1ccc(N=NN(C)C)cc1	3.8	.
NC(N)=NCC1COC2(CCCCC2)O1 (centres undefined)	1.2	.
COC(=O)C1=C(C)N(CC(C)C)C(=O)/C1=C\c1ccco1	5.0	17
O=C1OCCC1Sc1nnc(COc2ccccc2Cl)n1C1CC1 (centres undefined)	.	-7
COc1ccccc1N1CCN(S(=O)(=O)Cc2ccccc2)CC1	2.6	14
Cn1c(C(=O)NCCc2ccc(Cl)cc2)cc2c(=O)n(C)c3ccccc3c21	-3.4	6
O=C(O)CC(Cc1ccc(Cl)cc1)C(=O)NCc1ccccc1 (centres undefined)	.	-10

2 of these compounds in a different format:
FC(F)(F)c1nc(=S)c2ccccc2[nH]1
  MgrA DNA FP = .
  S aureus helic = 13

Cc1ccc(N=NN(C)C)cc1
  MgrA DNA FP = 3.8
  S aureus helic = .

The listing continues:
SMILES	MgrA DNA FP	S aureus helic
O=C(CCC(=O)N1CCOc2ccccc21)Nc1ccccc1Cl	2.1	5
COc1cc(C2CC(=O)N(CC(=O)NCC3CCCO3)c3ccccc3S2)cc(OC)c1OC (centres undefined)	-0.6	14
CC1(C)NC(=CC(=O)C(F)(F)F)NC1(C)C	0.3	.
Cc1csc(C(C#N)C(=O)COc2ccc(Cl)cc2)n1 (centres undefined)	.	4
CCOC(=O)N1CCC(N2CCCC(CO)C2)CC1 (centres undefined)	11	-2
CCCn1nc(C(=O)N(C)CCOc2ccccc2)c2ccccc2c1=O	.	19
Cc1ccc(NC(=O)Cc2nn[nH]n2)cc1Cl	-2.5	.
CC(C)CC(C(=O)Nc1cccc(C(F)(F)F)c1)N1C(=O)c2ccccc2C1=O (centres undefined)	3.0	11
O/N=C/c1ccc[n+](C/C=C/c2ccccc2)c1	0.1	8
CC(C)(C)SCC(=O)Nc1cccc2ncccc12	.	3
COc1cccc2sc(/N=C/N(C)C)nc12	-0.3	.
O=c1c2ccccc2nc2ccc(NCc3cccs3)nn12	.	4

Quoted at random: two records from the list.
SMILES	MgrA DNA FP	S aureus helic
CCN(CC)S(=O)(=O)c1ccc(Cc2ccc(S(=O)(=O)N(CC)CC)cc2)cc1	1.8	6
COc1ccccc1Oc1ccc(C(F)(F)F)cc1N	-1.9	.

Carrying on:
SMILES	MgrA DNA FP	S aureus helic
C=COC(=O)CSc1nc(C)cc(C)c1C#N	0.4	21
COc1ccc(S(=O)(=O)N(CC(=O)NCCSCc2ccccc2)c2ccc(C)cc2)cc1OC	-1.8	.
CC(C)(C)OC(=O)N1CCC(CNS(=O)(=O)c2cccc3cccnc23)CC1	-1.6	.
COc1ccc(S(=O)(=O)N2CCC(C(=O)Nc3c(F)cccc3F)CC2)cc1OC	.	-27
CCOC(=O)c1c(C)oc2ccc(OCC)cc12	1.6	-10
CCNC(=O)C1Cc2ccccc2CN1S(=O)(=O)c1ccc(F)cc1 (centres undefined)	-1.9	-5
CC(C)C(NC(=O)COc1ccccc1)C(=O)O (centres undefined)	.	-5
COc1cc(C=NC2=NN(c3ccccc3)CC2)ccc1O	-0.4	6
Cc1cc(C)n(S(=O)(=O)c2cccs2)n1	.	-15
CC(C)CCN1C(=O)c2ccc(C34CC5CC(CC(C5)C3)C4)cc2C1=O	0.0	-6
CC(=O)N1c2ccc(S(=O)(=O)N3CCC(C(=O)NC4CCCC4)CC3)cc2CC1C (centres undefined)	.	-26
CCCOc1cccc(C2C3=C(CC(C)(C)CC3=O)Nc3ccccc3N2C(=O)C(F)(F)F)c1 (centres undefined)	-2.0	.
O=C(CCC1CCCC1)N1CCN(C(=O)Cc2ccccc2)CC1	1.1	-3
CCOC(=O)c1cc(C)n(C)c1C	0.8	4
CCOc1ccc(N2C(=O)Nc3ccccc3C2(O)C(=O)N2CCCC2)cc1 (centres undefined)	.	-12
Cc1onc(-c2ccccc2)c1C(=O)Nc1ccccc1	-0.9	-13
Cc1cccc(OCCn2c(CNC(=O)c3ccccc3)nc3ccccc32)c1	2.2	-10
COc1ccc2c(CC(=O)OCc3cc(=O)n4c5c(sc4n3)CCCC5)coc2c1	.	9
CCOC(=O)Nc1ccc2c(CNC3CCCCC3)cc(=O)oc2c1	.	-6
Cc1cc(NC(=O)c2cc(=O)c3ccccc3o2)n(-c2ccccc2C)n1	-1.4	16
Cc1ccc(/C=C/C(=O)NCC2CCCO2)o1 (centres undefined)	.	-9
CCNc1ccc(S(=O)(=O)C(F)(F)F)cc1NC(=O)Cc1ccccc1	.	6
CCCCN1C(=O)/C(=C2/C(=O)N(C)c3ccccc32)SC1=S	1.1	1
CSc1ncc(Cl)c(C(=O)Nc2cc(C)ccc2C)n1	1.2	0
CCC(Sc1nc2cc3c(cc2c(=O)n1Cc1ccco1)OCO3)C(=O)Nc1ccccc1OC (centres undefined)	0.6	8
CN(C(=O)COC(=O)c1ccc2c(c1)OCCO2)c1ccccc1	.	30
OC(CNCCc1ccc(F)cc1)c1ccccc1 (centres undefined)	.	-6
O=C1CCNc2cc3ccccc3cc21	.	-41
CCn1c(-c2ccco2)nc2ccccc21	0.4	8
NCCCCC(=O)O	-0.4	.
O=C(CSc1nnc(SCC2CC2)s1)N1CCC(C(F)(F)F)CC1	-0.7	.
O=c1cc(C(F)(F)F)[nH]c2c(F)cccc12	-0.9	.
Cc1cc(C)nc(NS(=O)(=O)c2ccc(-n3c(Cn4ncc5ccccc5c4=O)n[nH]c3=S)cc2)n1	2.4	-12
COc1ccccc1N=Cc1c(O)n(C)c(=O)c2ccccc12	13	-58
O=C(CC12CC3CC(CC(C3)C1)C2)Nc1ccc(C(F)(F)F)cc1	-0.5	.
CCOc1ccc(Nc2cc(C(=O)NCC(OC)OC)c3ccccc3n2)cc1	.	-13

Full records from above. Order of screens: MgrA DNA FP	S aureus helic
O=c1c2ccccc2nc2ccc(NCc3cccs3)nn12 across the screens: .	4
CCOC(=O)c1cc(C)n(C)c1C across the screens: 0.8	4

Later entries.
SMILES	MgrA DNA FP	S aureus helic
O=C(OCc1ccc(F)cc1)c1ccc(-n2cnnn2)cc1	.	-6
C#CCn1c(=NC(=O)C2=COCCO2)sc2ccccc21	.	-7
O=C(NCCCCCCNC(=O)ON=C1CCCCC1)ON=C1CCCCC1	-0.7	.
N#CC1(C(=O)O)CN(CCc2ccc(Cl)cc2)CN(CCc2ccc(Cl)cc2)C1	-7.9	.
O=C(Nc1ccccc1)Oc1cccc(Cl)c1	.	-4
N#CCC(=O)Nc1nccs1	1.1	5
CCOC(=O)c1c(NC(C)=O)sc(C)c1C	.	-7
COC(=O)c1cc(N)ccc1N1CCOCC1	3.6	7
Cc1cc(C)n(CCCNC(=O)CSc2nnc(-c3c[nH]c4ccccc34)o2)n1	.	-6
O=C(CCCCCCCCC(=O)c1ccccc1)c1ccccc1	1.9	.
FC(F)(F)c1cccc(-c2nc(-c3ccncc3)no2)c1	0.5	.
CC[n+]1c(/C=C/Nc2ccccc2)sc2ccccc21	5.4	8
N#CC(C#N)=C(O)c1c(Cl)cccc1Cl	-0.2	.
COc1cc2c(cc1OC)C(C)N(C(=O)c1noc3c1COc1ccc(C)cc1-3)CC2 (centres undefined)	1.3	-5
Nc1oc(-c2ccccc2F)cc1C(=O)c1ccccc1	-0.1	-17
CC(=O)N[C@@H](CC(C)C)C(=O)N[C@@H](CC(C)C)C(=O)N[C@H](C=O)CCCN=C(N)N	-4.5	.
COc1ccc(C(=O)Nc2nc(C(C)(C)C)cs2)cc1	.	16
CSc1nnc(-c2ccncc2)n1Cc1ccccc1	-0.3	15
O=C(Nc1cccc(Cl)c1)c1noc2c1CCC2	.	11
O=C(NCc1nc(-c2ccccc2)no1)Nc1ccccc1	0.6	13
O=C(/C=C/c1ccco1)Nc1ccc(C(F)(F)F)cc1	.	-19
CC(C)N(C(=O)c1cc2sccc2n1Cc1ccc(F)cc1)C(C)C	-1.0	11
CCCc1nc2c(o1)CC(C)(C)CC2=O	-0.5	-2
O=c1[nH]c2ccc(Cl)cc2c(-c2ccccc2)c1SC(=S)N1CCOCC1	9.2	9
COc1nc(-c2ccccc2)ccc1-c1noc(-c2cccs2)n1	.	-24
CC1CC(O)(Cc2ccccc2)C(C)CN1C (centres undefined)	.	4
CC(=O)Nc1ccccc1OCc1cc(=O)n2nc(C)sc2n1	.	0
CS(=O)(=O)N1CCN(C2CCCCC2)CC1	-1.6	-5
CCOC(=O)C1CCN(CC(=O)N2C(C)CCCC2C)CC1 (centres undefined)	-2.8	9
CCc1nonc1NC(=O)COc1ccccc1OC	.	10
CSC1=NC(=O)/C(=C/c2ccccc2C(F)(F)F)S1	0.3	.
COc1ccccc1-c1cc(-c2cccs2)nc(C)c1C#N	-1.9	.
O=C1c2ccccc2S(=O)(=O)N1C(=O)c1c(Cl)nc2sccn12	.	6
COC(=O)c1ccc(NC(=O)N2CCC(N(C)Cc3cccc(Cl)c3)CC2)cc1	.	-2
Cc1cc(NC(=O)COC(=O)Cn2ccc(=O)[nH]c2=O)no1	.	2
O=C(NCC1CCCO1)C1CCN(C(=O)c2ccc(Br)cc2)CC1 (centres undefined)	0.0	-5
CCOC(=O)c1c(C)oc2c1c(C=Nc1cccnc1)c(O)c1ccccc12	.	-47
CC(C)=CCc1c2c(c3occ(-c4ccc(O)c(O)c4)c(=O)c3c1O)C=CC(C)(C)O2	2.7	.
Cc1ccc(NC(=O)c2ccc3c(=O)n(Cc4ccco4)c(=S)[nH]c3c2)cc1Cl	-0.8	8
O=C(c1cc2sccc2n1Cc1ccccc1)N(Cc1ccco1)Cc1cccs1	1.4	5
CC(=O)C1=C(C)NC(=O)C1CC(=O)O (centres undefined)	-0.1	.
COC(=O)C(C)NC(=O)C12CC3CC(CC(C3)C1)C2 (centres undefined)	.	-19
Cn1c(=O)n(C)c2cc(CO)ccc21	.	3
O=C(COc1cc(Cl)c(Cl)cc1Cl)NCCN1C(=O)CSC1=O	.	-13
S=C1N(CN2CCCCC2)CCN1CN1CCCCC1	-1.8	4
COc1ccc(N2C(=O)CCC(C(=O)NCC3CCCO3)C2c2ccc(F)cc2)cc1 (centres undefined)	-2.1	4
Cc1ccc(C)c(Cn2ncc3ccccc32)c1	-1.8	1
O=C(NCCS(=O)(=O)N1CCCC1)c1ccc2c(c1)OCO2	.	10
CC(=O)OCCCc1nc2ccccc2n1C(C)=O	3.0	9
CC(C)(CNC(=O)c1cccc(S(=O)(=O)N2CCOCC2)c1)N1CCOCC1	.	-10
CN(C(=O)CSc1nc2c(c(=O)[nH]1)CCC2)C1CCCCC1	.	27
CSc1c(C#N)c(N)c(C#N)c2c1COC(C)(C)C2	12	-3
